StopGo reporter: FMDV 2A StopGo reporter, luciferase signal. human cells with a luciferase reporter of 2A StopGo recoding; control for the full effect not named in the record. Potency, µM (highest dose often 57.9 µM), without a hit: at the highest dose signal change, negative = less light. 1.2% of 410,000 active; active = well fitted falling curve with a large enough effect; inconclusive = small, poorly fitted or top-dose-only effect; inactive = no such curve, though single readings can be large or run the other way; tested in HEK293T cells; further: on the % scale 0 is the no-effect control and ±100 the full control effect; nearly all actives have a fitted effect of over 45% in size; luciferase light after 4 h
SARS PLP yeast: SARS-CoV PLP inhibition in yeast; 0.19% of 330,000 active; S. cerevisiae expressing SARS-CoV PLpro, growth rescue; control for the full effect not named in the record; Potency, µM (series often up to 32.9 µM), inactives show at the highest dose activity, positive = growth rescue; AID 485353; active means well fitted rising curve with a large enough effect; inconclusive means small, poorly fitted or top-dose-only effect; inactive means no such curve, though single readings can be large or run the other way; further: 0% is about no effect; nearly all actives have a fitted effect of over 55% in size; growth read by luminescence after 48 h
RE007 growth inh: less growth of the S. pombe RE007 Vpr strain | S. pombe RE007 Vpr strain, BacTiter-Glo ATP luminescence, 24 h; control for the full effect not named in the record | Potency, µM (doses to about 92.2 µM), for inactives: at the highest dose activity change, negative = less growth | 0.21% of 360,000 active; active = well fitted falling curve with a large enough effect; inconclusive = small, poorly fitted or top-dose-only effect; inactive = no such curve, though single readings can be large or run the other way;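 further: on the % scale 0 is the no-effect control and ±100 the full control effect; nearly all actives have a fitted effect of over 50% in size; the assay follows cell death caused by Vpr and the record does not say whether a fall means rescue or toxicity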
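Fission yeast strain RE007, carrying one chromosomally integrated HIV-1 vpr copy, was seeded at OD 0.01 in PMG+AL medium with 23 nL pinned compound. After 24 h at 30 °C and 99% humidity, viability was read by BacTiter-Glo luminescence.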
* hit, by the source's call; ? = inconclusive; [ ] = dose if it differs, or a comment. Potency means the concentration at half of the fitted maximal effect. Not all compounds are listed (hit frequency here may not be typical).

Order of results – StopGo reporter, SARS PLP yeast, RE007 growth inh
CC(C)(C)C1CCc2sc(-c3nnc(CCl)o3)cc2C1 (stereo not drawn)
  -22%, 4%, 8%
CCc1ccccc1NC(=O)CN1CCN(C(=O)CN2C(=O)NC3(CCCC3)C2=O)CC1
  -18%, 1%, 2%
CCCN(CC(=O)Nc1ccccc1C)C(=O)c1cc(C)oc1C
  -13%, -1%, 1%
Cc1ccc(C)c(NC(=O)CN(C)C(=O)C2=NNC(=O)CC2)c1
  6%, -8%, 10%
O=C(O)c1cccc(S(=O)(=O)N2CC=C(c3ccccc3)CC2)c1
  -1%, -2%, ?
CCc1cc(SC#N)cc(C)c1N
  -16%, 0%, 0%
Cc1ccc(-c2cc(-c3ccccc3)cc(-c3ccccc3)[n+]2-c2ccccc2)cc1
  7.1µM*, -10%, -17%
CCOC(=O)N1CCC(Nc2ccc(N3C(=O)C4CCCCC4C3=O)cc2[N+](=O)[O-])CC1 (stereo not drawn)
  -17%, 3%, -2%
COc1ccc(-c2ccc3c(c2)S(=O)(=O)c2cccc(C(=O)NC4CCCCC4)c2C3=O)cc1OC
  -21%, 0%, 14%
COc1ccc(CN(C)C(=S)Nc2ccc(Cl)cc2)cc1
  20%, 1%, 2%
CN1CCN(c2ncnc3nc[nH]c23)CC1
  -8%, 1%, 6%
O=C(CSC(=S)N1CCCC1)N/N=C/c1c(O)[nH]c(=S)[nH]c1=O
  -3%, 5%, 11%
O=S(=O)(c1ccc2c(c1)CCCC2)N1CCNCC1
  -25%, -2%, -1%
CCc1cc(Cn2nc(-c3ccccc3C)cc2C(=O)O)on1
  2%, 1%, 1%
O=C(COC(=O)C1CCN(C(=O)c2ccc(Cl)cc2)CC1)Nc1ccccc1F
  -13%, 7%, -6%

Among those listed so far, these contain an aryl methoxy group:
Order of results – StopGo reporter, SARS PLP yeast, RE007 growth inh
COc1ccc(-c2ccc3c(c2)S(=O)(=O)c2cccc(C(=O)NC4CCCCC4)c2C3=O)cc1OC
  -21%, 0%, 14%
COc1ccc(CN(C)C(=S)Nc2ccc(Cl)cc2)cc1
  20%, 1%, 2%

Further results
Order of results – StopGo reporter, SARS PLP yeast, RE007 growth inh
CCOC(=O)Cc1csc(NC(=O)C(CC(C)C)NC(=O)C2CCCCC2)n1 (stereo not drawn)
  -19%, 1%, 0%
Cc1ccc2nc(C)cc(C(=O)NC3CCCCCC3)c2c1
  -13%, -1%, 2%
COC(=O)[C@]1(Cc2ccccc2)N[C@H](c2ccc(-c3cc(C(C)=O)cs3)cc2)[C@@H]2C(=O)N(C)C(=O)[C@@H]21
  -18%, 1%, -16%
C#CCOCCOCCOCCNc1nc(N2CCN(C(=O)[C@H](CCC(=O)O)n3cc([C@@H](N)CCCCN)nn3)CC2)nc(N2CCN(C(=O)[C@H](CCCCN)n3cc([C@@H](N)CC(N)=O)nn3)CC2)n1
  -8%, 5%, -12%
CC1(C)O[C@@H]2[C@H](O1)[C@@H](CO)O[C@H]2n1cnc2c(N)ncnc21
  0%, -4%, 4%
Cc1ccc(NC(=O)C(c2ccccc2)N2CCN(CC(=O)N3CCOCC3)CC2)cc1Cl (stereo not drawn)
  35%[activator], 1%[6.58 µM], 6%
COCC(=O)Nc1ccc(N2CCOCC2)c(S(=O)(=O)Nc2ccccc2OC)c1
  61%[activator], 3%, 2%
C[C@H](CO)N1C[C@H](C)[C@@H](CN(C)C(=O)Nc2ccc3c(c2)OCO3)Oc2c(NC(=O)c3ccncc3)cccc2C1=O
  -1%, 8%, -10%
Clc1ccc(-c2noc3c2-c2nc(Cc4cccc5ccccc45)sc2CC3)cc1
  -7%, 1%, -1%
CC1(C)CC(NCCN2CCN(C3=CC(=C(C#N)C#N)CC(C)(C)C3)CC2)=CC(=C(C#N)C#N)C1
  -23%, 0%, 15%
CCN(c1ccccc1)S(=O)(=O)c1ccc(N2CCN(c3ccc(OC)cc3)CC2)nc1
  ?, 5%, -8%
O=C(NCC1OCCCN1S(=O)(=O)c1cc(F)ccc1F)C(=O)NC1CCCCCC1 (stereo not drawn)
  14%, 4%, -1%
COc1ccc2[nH]c3c(c2c1)CCN1C(=O)C(CC(=O)NCCCn2ccnc2)C[C@H](C(=O)N2CCCCC2)[C@@]31C (stereo partly drawn)
  -13%, 0%, -7%
CCC1=NN2C(=N)/C(=C\c3cccn3-c3ccc(OC)cc3)C(=O)N=C2S1
  1%, -9%, -5%
CN(C(=O)/C=C/c1ccco1)c1ccccc1C(=O)O
  16%, -6%, 0%

Going on with the list.
Order of results – StopGo reporter, SARS PLP yeast, RE007 growth inh
CC(C)Oc1ccc(S(=O)(=O)N2CCOCC2)cc1NC(=O)C1COc2ccccc2O1 (stereo not drawn)
  -14%, -6%, 14%
COC(=O)NCC(c1ccco1)N1CCN(c2ccc(OC)cc2)CC1 (stereo not drawn)
  -4%, 7%, 3%
CC1CN(S(=O)(=O)c2cc(C(=O)NCc3ccncc3)ccc2Cl)CC(C)O1 (stereo not drawn)
  2%, -4%, 2%
CC(C)C[C@H]1CN=C(Nc2ccccc2)N1CCc1ccc(F)cc1
  -21%, -11%, -4%
O=C(Cn1cc(C(F)(F)F)ccc1=O)N1CCc2ccccc21
  4%, -4%, 6%
CC(=O)NCc1ccc(C(=O)COC(=O)COc2ccc(Cl)c(C)c2)s1
  -10%, -3%, 15%
COc1ccc(S(=O)(=O)N(C)C[C@H]2Oc3ccc(NC(=O)Cn4cnnn4)cc3C(=O)N([C@H](C)CO)C[C@@H]2C)cc1
  -12%, -1%, -9%
C=CC[C@H](CC(=O)NCCO)C(=O)N[C@H](COC(=O)[C@@H](CC=C)Cc1ccc(F)cc1)Cc1ccccc1
  -16%, -7%, 1%
CCOC(=O)C1CCCN(S(=O)(=O)NC[C@H]2O[C@@H](n3cnc4c(N)ncnc43)[C@H](O)[C@@H]2O)C1 (stereo partly drawn)
  -7%, 2%, -19%
COc1ccc(Cl)cc1NC(=O)Nc1ccccc1SC
  -1%, -1%, 8%
O=C(O)CNC(=S)N(Cc1ccccc1)Cc1cccnc1
  -11%, 1%, 12%
CC(C)N(Cc1nc2ccccc2c(=O)[nH]1)C(=O)c1ccc(NC(=O)CSc2nnnn2C)cc1
  -19%, 2%, -7%
Cc1ccc(-n2nnnc2SCC(=O)c2c(N)n(C3CC3)c(=O)[nH]c2=O)cc1
  -7%, 6%, -6%
COc1ccc(CC(=O)OCC(=O)NNC(=O)c2ccccc2)cc1
  -20%, 1%, -5%
CCOc1ccc(S(=O)(=O)N2CCN(C(=O)c3cc4ccccc4o3)CC2)cc1
  ?, -4%, -7%

(more compounds)
Order of results – StopGo reporter, SARS PLP yeast, RE007 growth inh
Nc1ncnc2c1ncn2[C@@H]1O[C@H](CNCc2ccccc2)[C@@H](O)[C@H]1O
  -4%, -6%, -5%
CC(C(=O)Nc1ccc2c(c1)OCO2)n1cnc2c1c(=O)n(C)c(=O)n2C (stereo not drawn)
  -11%, 0%, 7%
C[C@H](CO)N1C[C@H](C)[C@@H](CN(C)Cc2ccc(C(=O)Nc3ccccc3N)cc2)Oc2c(NC(=O)C3CCCCC3)cccc2C1=O
  9%, 16%, -7%
FC(F)(F)c1ccc(NC2=NCCC2)cc1
  6%, -1%, 8%
O=C1CCC/C1=C\c1ccccc1
  11%, -3%, -15%
O=C(NCc1ccccc1)c1nc[nH]c1C(=O)N1CCc2ccccc2C1
  -2%, -2%, 7%
Cc1ccc(NC(=O)CCc2ccc(S(=O)(=O)N3CCOCC3)cc2)c(Cl)c1
  -16%, -1%, -2%
O=C(C1CCN(S(=O)(=O)c2ccc(Cl)c(C(F)(F)F)c2)CC1)N1CCC1
  -29%, 0%, -1%
C=C(c1ccccc1)c1ccccc1N
  9%, 5%, -1%
COc1ccccc1CCC(=O)Nc1ccc(OC)c(S(=O)(=O)N2CCCCC2)c1
  -20%, -4%, 4%
COc1ccc(S(=O)(=O)N2CCCCC2)cc1NC(=O)c1ccc(CS(C)(=O)=O)cc1
  19%, -3%, -4%
CC1CCCCC12NC(=O)N(CC(=O)N(C)Cc1nc3ccccc3c(=O)[nH]1)C2=O (stereo not drawn)
  9%, -9%, 9%
COc1cc(OC)cc(-c2c(C#Cc3ccsc3)c3cc(-c4ccc(N(C)C)nc4)ccc3n2C)c1
  -6%, 2%, 8%
COc1cc(OC)cc(-c2c(-c3cccs3)c3cc(-c4ccc5[nH]ccc5c4)ccc3n2C)c1
  47%[activator], 2%, -1%
CC1CCC(C(C)C)C(=O)/C1=C\c1ccc(NC(=O)CCC(=O)O)cc1 (stereo not drawn)
  -3%, -4%, -1%

Following part.
Order of results – StopGo reporter, SARS PLP yeast, RE007 growth inh
CNS(=O)(=O)c1ccc(C(=O)NCC(=O)NC(C)c2cccs2)cc1 (stereo not drawn)
  -14%, 2%, -7%
CCc1noc(C)c1C(=O)N(C)CC(=O)Nc1cccc(OC)c1
  -4%, 1%, 0%
CN(CC(=O)Nc1ccc(Cl)c(Cl)c1)C(=O)CNC(=O)C1CCCCC1
  -18%, -1%[6.58 µM], -5%
CC1CCCCC12NC(=O)N(CC(=O)Nc1ccc(S(=O)(=O)Nc3ncccn3)cc1)C2=O (stereo not drawn)
  -11%, 6%, -5%
CN(CC(=O)Nc1ccc(OC(F)(F)F)cc1)C(=O)c1ccc(N2CCCC2=O)cc1
  ?, -13%, 7%
O=C(COc1cccnc1[N+](=O)[O-])Nc1cccc(S(=O)(=O)N2CCOCC2)c1
  2%, -2%, 16%
COc1ccccc1N1CCN(C(=O)c2cc3c(=O)n4ccccc4nc3s2)CC1
  -24%, -3%, -17%
FC(F)(F)c1cc(CCN2CCNC[C@@H]2c2ccccc2)cc(C(F)(F)F)c1
  -12%, -11%, 1%
CC(NC(=O)C1CCN(S(=O)(=O)c2cccs2)CC1)c1cccc(Cl)c1 (stereo not drawn)
  -28%, 3%, 10%
OCC[C@H]1C[C@@H](O)[C@H](O)[C@]2(Cc3ccccc3CCO2)O1
  -18%, 4%, 7%
Cc1[nH]n(-c2ccccc2)c(=O)c1N=Nc1c(O)cc(S(=O)(=O)N(C)C)c2ccccc12
  13µM*, 4%, 4%
CCN1C(=O)[C@H]2[C@@H](c3ccc(-c4ccc(C(C)=O)cc4)cc3)N3CCC[C@@]3(C(=O)OC)[C@H]2C1=O
  -26%, 3%, 3%
CC(=O)c1cccc(N2C(=O)CC(N3CCN(S(=O)(=O)c4ccc(Cl)cc4)CC3)C2=O)c1 (stereo not drawn)
  -5%, -4%, 7%
CCOC(=O)c1c(C)c(-c2ccccc2)n(CC(=O)NCCCN(CC)CC)c1C
  0%, -5%, -7%
COCCN(CC(=O)Nc1cccc(C)c1C)C(=O)c1ccc(-n2cccn2)cc1
  3%, 6%, 1%

Additional entries:
Order of results – StopGo reporter, SARS PLP yeast, RE007 growth inh
Cc1cccc(NC(=O)CNC(=O)COc2cccnc2[N+](=O)[O-])c1C
  -2%, -12%, -2%
Cc1ccc([C@@H]2CC=C(C(=O)O)[C@H](c3ccc(F)cc3)N2S(=O)(=O)c2ccccc2C)cc1
  -9%, 3%, -6%
Cc1ccc(C(=O)Nc2ccc(N3CCOCC3)cc2)cc1S(=O)(=O)N1CCCCC1
  -18%, 5%, 9%
CC(=O)N(O)CCCCCNC(=O)CCC(=O)N(O)CCCCCNC(=O)CCC(=O)N(O)CCCCCNC(=O)CCC(=O)O
  -19%, 5%, -27%
C#CCOCCOCCOCCNc1nc(N2CCN(C(=O)Cn3cc(CCCN=C(N)N)nn3)CC2)nc(N2CCN(C(=O)[C@H]([C@@H](C)CC)n3cc(CCCCN)nn3)CC2)n1
  -17%, 4%, -16%
CN(Cc1cccc(F)c1)C(=O)CN1C(=O)NC2(CCc3ccccc32)C1=O (stereo not drawn)
  -4%, -5%, -4%
Cc1ccc(S(=O)(=O)/N=c2\scc(C)n2C)cc1
  21%, 5%, 2%
C[C@@]12C(=O)N(c3cccc(F)c3)C(=O)N1[C@H](c1ccc(Cl)cc1)[C@@H]1C(=O)N(C3CCCCC3)C(=O)[C@@H]12
  -16%, -2%, 13%
O=C(N[C@@H]1c2ccccc2CC[C@@H]1OCc1ccccc1)c1ccc(C(F)(F)F)cc1
  -26%, 13%, -13%
CC(C)(C)OC(=O)NCCCC[C@H](NC(=O)c1[nH]cnc1C(=O)N[C@@H](Cc1ccccc1)C(=O)OCc1ccccc1)C(=O)OC(C)(C)C
  -7%, -8%, 0%
COC(=O)[C@]1(Cc2ccccc2)N[C@H](CN(C)C(=O)COc2ccccc2)[C@@H]2C(=O)N(Cc3ccccc3)C(=O)[C@@H]21
  -25%, 2%, -6%
COCCCNC(=O)Cn1c(=O)n(CC(=O)NCCc2ccc(OC)c(OC)c2)c(=O)c2sccc21
  -6%, 0%, -11%
COC(=O)C1=C(c2ccc(F)cc2F)C[C@@H]2CC[C@H]1N2C(=O)NCC1CC1
  -9%, -6%, 4%
Cc1ccc(S(=O)(=O)N2CCN(C(=O)CN3C(=O)c4ccc([N+](=O)[O-])cc4C3=O)CC2)cc1C
  -21%, 2%, 5%
